Ecoli rRNA inh: inhibitors of bacterial rRNA selective over humanized ribosomes. 350,000 compounds, 1.6% hits. GFP signal change (wild-type ribosome), % (concentration not given with the values). E. coli WT GFP vs humanized-ribosome RFP mutants, fluorescence, 24 h; active compounds read low; DMSO median 0, no signal -100;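 active = significant combined selectivity score with lowered wild-type GFP, culture density cut under 30%, mutant RFP and density less affected; inactive = any of these conditions unmet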; also: one replicate is shown; some compounds called inactive have numbers as strong as hits
FGF22 binding: shifts melting point of recombinant human FGF22 | calls only at 9.99 µM | 340,000 compounds, 1.5% hits | recombinant FGF22 thermal shift, SYPRO orange fluorescence; percent of sucrose octasulfate shift, DMSO zero | Q9HCT0;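 active = melting point raised past a set limit in the mean and every replicate; three in four hits are not shown here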
Target sequence (Q9HCT0 whole entry, looked up): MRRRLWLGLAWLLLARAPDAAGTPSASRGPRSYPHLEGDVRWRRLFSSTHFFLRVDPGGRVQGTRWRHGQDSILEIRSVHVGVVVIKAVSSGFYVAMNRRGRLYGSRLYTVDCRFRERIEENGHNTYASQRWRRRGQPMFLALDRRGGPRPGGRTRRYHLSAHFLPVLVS
Ecoli rRNA inh OD600: second read-out of Ecoli rRNA inh, no call of its own (marks repeat the call); OD600 change, %; measured here: OD600 growth;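 optical density of the mix in the first replicate; 0 = DMSO median and -100 = no signal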
Ecoli rRNA inh RFP: second read-out of Ecoli rRNA inh, no call of its own (marks repeat the call); RFP signal change, %; measured here: RFP humanized mutant strains;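 first replicate; 0 = DMSO median and -100 = no signal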
The depositor's hits bear a star; i = inactive; & = joins results of further samples. An excerpt; count on the stated rates, not on these rows.

No.	smiles	Ecoli rRNA inh	Ecoli rRNA inh OD600	Ecoli rRNA inh RFP	FGF22 binding
1	COc1cccc(C(=O)N[C@H](C(=O)N2CCC[C@H]2C(=O)NCCc2ccccc2Cl)c2ccccc2)c1	-34*	-24*	0.6*	i
2	COC(=O)C[C@@H]1C[C@H]2c3cc(NS(=O)(=O)c4ccc(OC)cc4)ccc3O[C@H]2[C@H](CO)O1	-2	2	0.1	i
3	CCCNC(=O)C[C@@H]1CC[C@H]2[C@@H](COc3ccc(NC(=O)Nc4ccccc4)cc3C(=O)N2C)O1	2	-4	-1.2	i
4	CCCC(=O)Nc1ccc2c(c1)C(=O)N(C)[C@@H]1CC[C@H](CC(=O)NCC(F)(F)F)O[C@@H]1CO2	1	-1	1.8	i
5	C[C@@H]1CN([C@H](C)CO)C(=O)c2cc(NS(=O)(=O)c3ccc(Cl)cc3)ccc2O[C@@H](C)CCCCO[C@H]1CN(C)S(=O)(=O)c1ccc(Cl)cc1	-8	4	-7.1	i
6	Cc1[nH]c2ccccc2c1CC(=O)Nc1ccc(Nc2cccnc2)c(-c2ccc(OC(F)(F)F)cc2)c1	4	12	1.3	i
7	C[C@H]1CCCCO[C@H](CN(C)S(=O)(=O)c2ccc(F)cc2)[C@@H](C)CN([C@@H](C)CO)C(=O)c2cc(NS(=O)(=O)c3ccc(F)cc3)ccc2O1	-3	7	1.8	i
8	C[C@@H]1CN([C@H](C)CO)C(=O)c2cccc(NC(=O)Nc3ccc4c(c3)OCO4)c2O[C@@H]1CN(C)C(=O)Nc1ccccc1	3	11	-0.1	i
9	C[C@H]1CCCCO[C@@H](CN(C)C(=O)Nc2ccc3c(c2)OCO3)[C@@H](C)CN([C@@H](C)CO)C(=O)c2cc(NC(=O)Cc3ccccc3)ccc2O1	-3	1	-1.6	i
10	C[C@@H]1CN([C@@H](C)CO)C(=O)c2cc(-c3ccncc3)cnc2O[C@H]1CN(C)C(=O)Cc1cccnc1	4	2	-2.8	i
11	C[C@@H]1CCCCO[C@@H](CN(C)C(=O)Nc2ccc(C(F)(F)F)cc2)[C@@H](C)CN([C@H](C)CO)C(=O)c2cc(NC(=O)Nc3ccc(C(F)(F)F)cc3)ccc2O1	4	18	-1.3	i
12	CNC(=O)C[C@@H]1CC[C@@H]2[C@@H](COc3ccc(NC(=O)c4ccccc4F)cc3C(=O)N2C)O1	3	6	-3.6	i
13	C/C=C/c1ccc(C2[C@@H]3CN(S(=O)(=O)c4cn(C)cn4)C[C@H]2N3)cc1 (some centres not stated)	9&1	47&7	4.7&1.9	i
14	O=C(N[C@H](C(=O)N1CCC[C@H]1C(=O)NC1CCCC1)C1CCCCC1)c1ccccc1	-7	-5	5.8	i
15	C[C@H]1CN([C@@H](C)CO)C(=O)Cc2cc(NC(=O)CCCCCC(=O)Nc3ccccc3N)ccc2O[C@@H]1CN(C)S(=O)(=O)c1cccs1	1	4	-0.4	i
16	COc1ccccc1CNC(=O)C[C@H]1CC[C@H]2[C@@H](COC[C@H](O)CN2Cc2cccc(-c3ccncc3)c2)O1	-6	-11	0.7	i
17	CC(C)c1cc(C(=O)NCc2ccc(F)cc2)c(N)s1	0	-1	0.9	i
18	C[C@@H]1CN([C@H](C)CO)C(=O)Cc2cc(NC(=O)CCC(F)(F)F)ccc2O[C@H]1CN(C)C(=O)Nc1ccc(C(F)(F)F)cc1	2	4	-1.3	i
19	C[C@H](CO)N1C[C@H](C)[C@H](CN(C)Cc2ccc(C(=O)Nc3ccccc3N)cc2)OCCCC[C@H](C)Oc2ccc(N(C)C)cc2C1=O	0	-6	-1.1	i
20	O=C(/C=C(\Nc1ccc(Br)c(F)c1)c1ccccc1)c1ccccc1	-19	-22	-10	i

(next part)
No.	smiles	Ecoli rRNA inh	Ecoli rRNA inh OD600	Ecoli rRNA inh RFP	FGF22 binding
21	COc1ccc(S(=O)(=O)N2C[C@H](O)COC[C@@H]3O[C@H](CC(=O)N[C@H]4CCN(Cc5ccccc5)C4)CC[C@H]32)cc1	-3	1	-2.2	i
22	Cc1cc(N2CCN(CC(C)(C)O)C[C@@H]2C)ccc1N1CCN(CC(C)(C)O)[C@H](C)C1	9	18	-0.2	i
23	Cc1noc(C)c1NC(=O)Nc1ccc2c(c1)CC(=O)N([C@H](C)CO)C[C@H](C)[C@H](CN(C)C(=O)NC(C)C)O2	5	10	-0.9	i
24	COC(=O)C1=C(C)N(C)C(=NCc2ccc(C(F)(F)F)cc2)NC1c1ccc(Cl)cc1 (configuration not stated)	-44	-75	-14	i
25	CO[C@@H]1CN(C)C(=O)c2cc(NC(C)=O)ccc2OC[C@H](C)N(Cc2nccs2)C[C@H]1C	0	-1	0.0	i
26	COc1ccc(NC(=O)Nc2ccc3c(c2)CC(=O)N([C@H](C)CO)C[C@@H](C)[C@@H](CN(C)Cc2ccc(Cl)c(Cl)c2)O3)cc1	4	6	1.1	i
27	CC(=O)C1=C(C)N(CC(C)C)C(=S)NC1c1ccc(Br)cc1 (configuration not stated)	-1	-8	12	i
28	C[C@@H]1CN([C@H](C)CO)C(=O)c2cccc(NS(=O)(=O)c3ccccc3)c2O[C@H]1CN(C)S(=O)(=O)c1ccc(F)cc1	1	0	1.6	i
29	COc1cc([N+](=O)[O-])ccc1NC(=O)CN1C(=O)NC2(CCCCC2C)C1=O (configuration not stated)	0	8	1.9	i
30	C[C@@H]1CN([C@H](C)CO)C(=O)Cc2cc(NC(=O)Nc3ccc(C(F)(F)F)cc3)ccc2O[C@H]1CN(C)Cc1ccc(Oc2ccccc2)cc1	7	0	0.3	i
31	CCC(=O)N1[C@@H](CO)[C@@H](c2ccccc2)C12CN(C(=O)CN1CCOCC1)C2	0	14	0.3	i
32	COc1ccc(S(=O)(=O)Nc2ccc3c(c2)C(=O)N([C@@H](C)CO)C[C@@H](C)[C@@H](CN(C)S(=O)(=O)c2ccc(OC)cc2)OCCCC[C@H](C)O3)cc1	-3	-1	-0.1	i
33	O=C(c1ccccn1)N1CC[C@@H]2[C@@H](CO)Nc3ccc(C#Cc4cccnc4)cc3[C@@H]21	1	13	-1.0	i
34	O=C(C[C@H]1CC[C@@H]2[C@H](COC[C@@H](O)CN2Cc2ccc3c(c2)OCO3)O1)N1CCCCC1	-2	-4	-2.1	i
35	CC(C)C(=O)Nc1ccc2c(c1)C(=O)N(C)[C@@H]1CC[C@H](CC(=O)NCCc3ccccc3)O[C@@H]1CO2	4	12	-0.6	i
36	COC(=O)C1=C(C)N(Cc2cccc(C(F)(F)F)c2)C(=NCc2cc(OC)c(OC)c(OC)c2)NC1CCc1ccccc1 (configuration not stated)	-45	-76	-18	i
37	O=C(C[C@@H]1CC[C@@H]2NC[C@H](O)COC[C@H]2O1)NCCN1CCCCC1	4	12	-0.4	i
38	C[C@@H]1CCCCO[C@@H](CN(C)C(=O)Cc2ccccc2)[C@@H](C)CN([C@H](C)CO)C(=O)c2cc(NC(=O)NC3CCCCC3)ccc2O1	-1	-6	-0.6	i
39	OC(c1ccccc1)(c1ccccc1)C1CCN(CCCOc2ccc(-c3cncnc3)cc2)CC1	1	6	13	i
40	COc1ccc(S(=O)(=O)N2CC[C@@H]3[C@H]2c2cc(-c4ccccc4F)ccc2N[C@@H]3CO)cc1	1	-23	4.8	i

Some entries already given, showing only FGF22 binding.
| # | Structure | FGF22 binding |
| --- | --- | --- |
| 21 | COc1ccc(S(=O)(=O)N2C[C@H](O)COC[C@@H]3O[C@H](CC(=O)N[C@H]4CCN(Cc5ccccc5)C4)CC[C@H]32)cc1 | i |
| 4 | CCCC(=O)Nc1ccc2c(c1)C(=O)N(C)[C@@H]1CC[C@H](CC(=O)NCC(F)(F)F)O[C@@H]1CO2 | i |

Back to the main list with the 6 entries that preceded the break.
No.	smiles	Ecoli rRNA inh	Ecoli rRNA inh OD600	Ecoli rRNA inh RFP	FGF22 binding
35	CC(C)C(=O)Nc1ccc2c(c1)C(=O)N(C)[C@@H]1CC[C@H](CC(=O)NCCc3ccccc3)O[C@@H]1CO2	4	12	-0.6	i
36	COC(=O)C1=C(C)N(Cc2cccc(C(F)(F)F)c2)C(=NCc2cc(OC)c(OC)c(OC)c2)NC1CCc1ccccc1 (configuration not stated)	-45	-76	-18	i
37	O=C(C[C@@H]1CC[C@@H]2NC[C@H](O)COC[C@H]2O1)NCCN1CCCCC1	4	12	-0.4	i
38	C[C@@H]1CCCCO[C@@H](CN(C)C(=O)Cc2ccccc2)[C@@H](C)CN([C@H](C)CO)C(=O)c2cc(NC(=O)NC3CCCCC3)ccc2O1	-1	-6	-0.6	i
39	OC(c1ccccc1)(c1ccccc1)C1CCN(CCCOc2ccc(-c3cncnc3)cc2)CC1	1	6	13	i
40	COc1ccc(S(=O)(=O)N2CC[C@@H]3[C@H]2c2cc(-c4ccccc4F)ccc2N[C@@H]3CO)cc1	1	-23	4.8	i
41	O=C(N[C@H](C(=O)N1CCC[C@H]1C(=O)NCCc1ccccc1Cl)c1ccccc1)c1ccccc1	-35	-45	-6.6	i
42	COCCNC(=O)C[C@H]1C[C@@H]2c3cc(NS(=O)(=O)c4ccc(F)cc4)ccc3O[C@@H]2[C@@H](CO)O1	-1	10	1.6	i
43	CS(=O)(=O)Nc1ccc2c(c1)[C@@H]1C[C@@H](CC(=O)NCc3ccc(-c4ccccc4)cc3)O[C@@H](CO)[C@@H]1O2	-4	-27	11	i
44	Cc1ccc(S(=O)(=O)N(C)C[C@@H]2OCCCC[C@@H](C)Oc3ccc(NC(=O)C4CCCCC4)cc3C(=O)N([C@H](C)CO)C[C@@H]2C)cc1	2	4	0.6	i
45	C[C@@H]1CN([C@H](C)CO)C(=O)c2cc(NC(=O)Cn3cnnn3)ccc2O[C@H]1CN(C)Cc1ccc(C(=O)Nc2ccccc2N)cc1	0	-1	-2.9	i
46	C[C@@H]1CCCCO[C@H](CN(C)Cc2ccc(C(F)(F)F)cc2)[C@H](C)CN([C@@H](C)CO)C(=O)c2cc(NC(=O)Nc3ccccc3)ccc2O1	-2	2	1.8	i
47	Cc1noc(C)c1S(=O)(=O)Nc1ccc2c(c1)CC(=O)N([C@@H](C)CO)C[C@H](C)[C@@H](CN(C)S(C)(=O)=O)O2	1	3	-1.1	i
48	COc1ccc(S(=O)(=O)Nc2cccc3c2O[C@H](CN(C)S(=O)(=O)c2ccccc2)[C@@H](C)CN([C@@H](C)CO)C3=O)cc1	-6	-4	-0.4	i
49	CN1c2ccc(-c3cccc(F)c3)cc2[C@H]2[C@H](CCN2C(=O)c2ccncc2)[C@@H]1CO	-3	-24	3.7	i
50	COc1ccccc1CNC(=O)C[C@@H]1CC[C@@H]2[C@H](COC[C@H](O)CN2C(=O)Nc2ccc(F)cc2)O1	-3	0	-1.2	i
51	CCN=C1NC(c2ccccc2C(F)(F)F)C(C(=O)OC)=C(C)N1Cc1ccc(C(F)(F)F)cc1 (configuration not stated)	-50	-78	-17	i
52	O=C([C@H]1[C@H](CO)[C@H]2Cn3c(ccc(-c4ccccc4)c3=O)[C@@H]1N2CCC(F)(F)F)N1CCOCC1	-2	4	0.0	i
53	C[C@H]1CCCCO[C@@H](CN(C)C(=O)Nc2ccc3c(c2)OCO3)[C@@H](C)CN([C@@H](C)CO)C(=O)c2cc(NS(=O)(=O)c3ccc(F)cc3)ccc2O1	2	-6	-0.1	i
54	C[C@@H]1CN(c2ccc(N3CCNC[C@@H]3C)cc2C#N)C[C@H](C)O1	47	31	0.4	i
55	O=C(c1cnccn1)N1C[C@@H]2N[C@H](C1)C2c1ccc(/C=C/c2ccccc2)cc1 (some centres not stated)	-7&-5	-7&-8	2.1&2.0	i
56	COc1ccc(-c2ccc3c(c2)[C@@H]2[C@@H](CCN2C(=O)c2ccc(F)cc2)[C@@H](CO)N3C)cc1	2	-9	11	i
57	CCCC(=O)Nc1ccc2c(c1)C(=O)N(C)[C@@H]1CC[C@@H](CC(=O)NCc3ccccc3F)O[C@H]1CO2	0	-6	2.7	i
58	C[C@H](CO)N1C[C@H](C)[C@@H](CN(C)S(=O)(=O)c2cccs2)OCCCC[C@H](C)Oc2ccc(NC(=O)c3ccccc3)cc2C1=O	0	4	-0.7	i
59	COc1cccc(S(=O)(=O)N2C[C@@H]3N[C@H](C2)C3c2ccc(-c3ccc(C(=O)N(C)C)cc3)cc2)c1 (some centres not stated)	-4	17	-3.4	i
60	C[C@@H]1CN([C@@H](C)CO)C(=O)c2cc(NC(=O)Nc3cccc4ccccc34)ccc2O[C@@H](C)CCCCO[C@@H]1CN(C)Cc1ccc(C(F)(F)F)cc1	-6	0	-5.1	i

Following part.
No.	smiles	Ecoli rRNA inh	Ecoli rRNA inh OD600	Ecoli rRNA inh RFP	FGF22 binding
61	CCC(=O)N1[C@H](CO)[C@H](c2ccccc2)[C@H]1CN(CC)C(=O)c1ccc(F)cc1	2	0	-1.1	i
62	C[C@H]1CCCCO[C@H](CN(C)S(=O)(=O)c2ccc(F)cc2)[C@@H](C)CN([C@@H](C)CO)C(=O)c2cc(NC(=O)Cc3ccccc3)ccc2O1	-1	2	-0.2	i
63	COc1ccc(C2CC(=O)C(c3ccccc3OC)=CN2Cc2ccccc2)cc1 (configuration not stated)	-42	-68	-6.3	i
64	C=CCO[C@H]1CN(C(=O)OC)[C@@H]2C[C@H]1Oc1ccccc12	27	18	4.2	i
65	COc1ccc(NC(=O)Nc2ccc3c(c2)C(=O)N([C@H](C)CO)C[C@@H](C)[C@@H](CN(C)S(=O)(=O)c2cn(C)cn2)OCCCC[C@H](C)O3)cc1	0	-1	-0.2	i
66	COc1ccc(S(=O)(=O)Nc2ccc3c(c2)C(=O)N([C@@H](C)CO)C[C@H](C)[C@@H](CN(C)CC2CCCCC2)OCCCC[C@H](C)O3)cc1	4	-26	22	i

Assay outcomes deposited in PubChem by Broad Institute.
